Screens (PubChem BioAssay)
VDR inh – Inhibitors of the vitamin D receptor (VDR): qHTS | Vitamin D3 receptor (Homo sapiens), P11473 | 400,000 compounds, 0.93% hits | VDR-SRC2-3 peptide fluorescence polarization, 2 h | Potency, µM, inactives show max response, negative = inhibition, usual class: inhibitors; active = well fitted inhibition curve with a large enough effect; inconclusive = small, poorly fitted or top-dose-only effect, or another doubt; inactive = no such curve, though single readings can be large or run the other way; note: series mostly up to about 120 µM
Target sequence (P11473 whole entry, looked up): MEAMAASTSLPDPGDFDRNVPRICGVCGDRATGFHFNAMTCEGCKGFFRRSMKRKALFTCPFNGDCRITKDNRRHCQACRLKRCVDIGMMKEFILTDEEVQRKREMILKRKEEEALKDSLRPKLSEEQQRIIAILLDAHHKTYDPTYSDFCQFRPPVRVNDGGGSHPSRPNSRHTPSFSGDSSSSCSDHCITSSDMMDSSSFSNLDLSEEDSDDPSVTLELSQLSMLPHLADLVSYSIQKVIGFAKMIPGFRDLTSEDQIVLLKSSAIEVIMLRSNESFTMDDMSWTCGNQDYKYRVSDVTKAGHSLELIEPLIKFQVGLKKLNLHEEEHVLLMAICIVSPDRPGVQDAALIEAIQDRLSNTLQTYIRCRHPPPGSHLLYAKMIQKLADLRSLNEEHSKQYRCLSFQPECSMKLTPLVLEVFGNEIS
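Two reagent solutions held at 4 deg C in the dark were dispensed, compounds pinned at 23 nl, and the mixture incubated 2 h at room temperature. Read-out: fluorescence polarization of VDR–SRC2-3 peptide binding.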
Numbers without * were called inactive; u = inconclusive. % is set by controls: 0 for no effect and ±100 for the full control effect; potency is the fitted concentration of half-maximal effect. The list is partial; the hit share may differ from the screen's.

Start of the data: the first 7 entries, ahead of the listing:
SMILES	VDR inh
CN(C)Cc1cc(C(C)(C)c2ccccc2)ccc1O	3.1%
CCOC(=O)C(Cc1ccccc1)C(=O)Nc1cccc2ccccc12 (centres undefined)	-17.3%
COc1ccc(CC(=O)OCC(=O)Nc2ncc(Cl)cc2Cl)cc1OC	-14.4%
Cc1cc(C)c2nc(N3CCC(C(=O)N4CCN(C(=O)c5ccco5)CC4)CC3)sc2c1	-16.7%
CCc1ccc(CNC(=O)CSCc2cnn(-c3ccccc3)c2-n2cccc2)cc1	6.2%
Cc1nn(C)c2c1c(C(F)(F)F)cc(=O)n2C(C)C(=O)NCCc1ccc(Cl)cc1 (centres undefined)	14.4%
CCCN(C(=O)c1cc(-c2ccco2)nc2ccccc12)c1c(N)n(Cc2ccccc2)c(=O)[nH]c1=O	-21.1%

The whole of this part, from the start:
SMILES	VDR inh
CN(C)Cc1cc(C(C)(C)c2ccccc2)ccc1O	3.1%
CCOC(=O)C(Cc1ccccc1)C(=O)Nc1cccc2ccccc12 (centres undefined)	-17.3%
COc1ccc(CC(=O)OCC(=O)Nc2ncc(Cl)cc2Cl)cc1OC	-14.4%
Cc1cc(C)c2nc(N3CCC(C(=O)N4CCN(C(=O)c5ccco5)CC4)CC3)sc2c1	-16.7%
CCc1ccc(CNC(=O)CSCc2cnn(-c3ccccc3)c2-n2cccc2)cc1	6.2%
Cc1nn(C)c2c1c(C(F)(F)F)cc(=O)n2C(C)C(=O)NCCc1ccc(Cl)cc1 (centres undefined)	14.4%
CCCN(C(=O)c1cc(-c2ccco2)nc2ccccc12)c1c(N)n(Cc2ccccc2)c(=O)[nH]c1=O	-21.1%
O=C1c2ccccc2S(=O)(=O)N1Cc1nc2ccccc2s1	-9.8%
O=C(c1ccco1)N1CCN(S(=O)(=O)c2ccc3[nH]c(=O)oc3c2)CC1	-10.1%
c1ccc(SCc2cn(C[C@H]3CC[C@@H]([C@@H]4CC[C@H](Cn5cc(CSc6ccccc6)nn5)O4)O3)nn2)cc1	-6.2%
COc1ccccc1-c1cc(C(=O)N2CCN(c3ccc(F)cc3)CC2)no1	-5.9%
Cc1ccccc1-n1c(SC2CCOC2=O)nnc1-c1ccncc1 (centres undefined)	14.3%
Cc1cc(C)c(S(=O)(=O)Nc2ccc(C(=O)O)cc2)cc1S(=O)(=O)Nc1ccc(C(=O)O)cc1	1.4%
CCCOc1ccc(-c2c(C(=O)N/N=C/c3cccnc3)nnn2-c2nonc2N)cc1	14.3%
CN(CC(=O)Nc1ccc(Cl)c(C(F)(F)F)c1)C(=O)Cc1c[nH]c2ccccc12	2.3%
Cc1ccc(CC(=O)NCCCn2ccnc2)cc1	-2.7%
COC(=O)c1nc2n(n1)C(c1cccc(Cl)c1)C(C(=O)Nc1ccccc1OC)=C(C)N2 (centres undefined)	-14.8%
Cn1c(SCC(=O)Nc2ccccc2)nnc1-c1ccc2nonc2c1	-5.0%
Cc1ccc2nccc(C(=O)N3CCCC(N4CCN(c5ccc(F)cc5)CC4)C3)c2c1 (centres undefined)	-15.2%
CCCCN(C)C(=O)c1nc2ccccn2c1CN1CCC[C@H]1C(=O)OC	-9.0%
O=S1(=O)CCOC[C@H](CC2CCCCC2)N1Cc1cccc(F)c1	3.2%
Cc1ccc2oc(C(=O)NC3CCS(=O)(=O)C3)c(C)c2c1 (centres undefined)	-22.6%
CC(C)OP(=O)(OC(C)C)C(Nc1ccccc1)c1cccnc1 (centres undefined)	-3.9%
COc1cc(OC)c(NC(=O)C(CC(C)C)N2Cc3ccccc3C2=O)cc1Cl (centres undefined)	1.7%
O=C(C1=C(O)C(=O)N(CC2CCCO2)C1c1cccc(O)c1)c1ccco1 (centres undefined)	-18.8%

The results go on:
SMILES	VDR inh
Cc1ccccc1CN1C(=O)/C(=C\c2ccc(C(=O)NCCN3CCOCC3)cc2)Sc2ccccc21	-4.2%
COc1ccc(N(CC(=O)Nc2cccc(C)c2)S(=O)(=O)c2ccc(C)cc2)cc1OC	-21.9%
COc1ccc(NS(=O)(=O)c2cc(NC(=O)Cc3c(F)cccc3Cl)ccc2OC)cc1	-17.0%
CN(CCOc1ccc(Cl)cc1)C(=O)c1cc([N+](=O)[O-])ccc1N1CCOCC1	4.0%
O=C1C=C(c2ccc(C(=O)O)cc2)C[C@@H](c2ccc(Cl)cc2)C1	-0.4%
COc1ccc(C(=O)CCC(=O)NCCc2c[nH]c3ccccc23)cc1	-12.7%
Clc1ccccc1-c1nn2c(-c3cc(-c4ccccc4)n[nH]3)nnc2s1	-14.1%
COc1ccccc1NC(=O)/C(C#N)=C/c1cccnc1	-9.8%
C=CCNC(=S)NNC(=O)COc1cccc(Cl)c1	5.3%
CC1CC(C)(C)CC2(C1)NC(=O)N(CC(=O)NCCc1c[nH]c3ccccc13)C2=O (centres undefined)	9.4%
c1ccc(-c2ncnc3cc4n(c23)CCC4)cc1	10.5%
Cc1ccccc1OCC(=O)OCC(=O)NCCc1ccccc1	-21.9%
CN(CC1CCCO1)S(=O)(=O)c1ccc(C(=O)N2CCN(c3ccccc3)CC2)cc1 (centres undefined)	5.1%
CCOC(=O)c1cnn2c(C)cc(-c3ccccc3)nc12	-7.3%
COc1ccc(-c2noc(CCCC(=O)NC3CCCCC3)n2)cc1OC	u
Cc1cc(Cl)c(OCCOCCN2CCC(C)CC2)c(Br)c1	-16.7%
FC(F)(F)c1cc(CN2CCCC3(CCNCC3)C2)cc(C(F)(F)F)c1	u
CCOC(=O)c1sc(NC(C)=O)c(C(=O)OCC)c1C	-17.2%
Cc1cc(C)nc(-n2nc(C)cc2NC(=O)c2cccc(S(=O)(=O)N(C)C)c2)n1	-6.4%
CC(=O)N1CCc2c(sc3c2c(=O)n(-c2ccccc2)c(=O)n3Cc2cccc(C(F)(F)F)c2)C1	-14.2%
O=C1OCCC1Sc1nc2ccccc2c(=O)n1Cc1ccc(F)cc1 (centres undefined)	-5.3%
Nc1nc(SCC(=O)Nc2ccc(Cl)cc2C(F)(F)F)n[nH]1	-2.3%
COC(=O)Cn1ncc2c3ccccc3n(C)c2c1=O	-18.5%
O=C(Cc1ccc(NC(=O)C2CCCN(C(=O)c3ccccc3)C2)cc1)Nc1ccc(C(=O)N2CCOCC2)cc1 (centres undefined)	0.9%
Cc1nc(Cl)c2c(n1)N(CC(N)=O)C(=O)CO2	-13.1%

(continued)
SMILES	VDR inh
COc1cc(Cl)c(C)cc1NC(=O)c1sc2nc(C)cc(C)c2c1N	7.2%
COc1ccccc1NC(=O)c1sc2nc(-c3cc4cc(Cl)ccc4oc3=O)[nH]c(=O)c2c1C	-8.6%
CCC(C)NCC(=O)Nc1ccc(-c2nc3cc(NC(=O)CNC(C)CC)ccc3o2)cc1 (centres undefined)	-0.9%
O=C(O)CCc1ccc(S(=O)(=O)Nc2ccc(OCc3ccccc3)cc2)cc1	-23.5%
O=C(CSC1CN(C(c2ccccc2)c2ccccc2)C1)N/N=C/c1ccc(Cl)cc1Cl	-23.1%
COc1cc(C=CC(=O)OCC=Cc2ccc3c(c2)OCO3)cc(OC)c1OC	2.5%
COc1ccc(-c2noc(CSc3ccccc3)n2)cc1OC	-0.9%
Cc1c(/C=N/NC(=O)CNc2ccccc2)c2ccccn2c1C(=O)c1ccccc1	8.7%
CCN1CCN(C(=O)CNC(=O)c2nn(-c3ccc(OC)cc3)c(=O)c3ccccc23)CC1	2.0%
CN(CC1CCCN(CCc2ccc(Cl)cc2)C1)C(=O)c1ccoc1 (centres undefined)	-2.8%
Cc1ccc(S(=O)(=O)NCC2(c3ccccc3)CCOCC2)cc1	7.8%
CCCCSC1=C(C#N)C(c2ccccc2C)C(C(=O)OCC)C(=O)N1 (centres undefined)	-16.6%
CCOC(=O)CNC(=O)CSc1nnc(-c2ccco2)n1Cc1ccco1	5.7%
Cc1cc(C)c2c(c1)c(C)cc1nnc(SCC(=O)NCc3ccco3)n12	1.7%
Cc1cccn2c(=O)nc(SCC(=O)NC3CCCC3)nc12	-5.7%
CC1CC(C)CN(Cc2nc3c(c(=O)n(C)c(=O)n3C)n2CCN2CCOCC2)C1 (centres undefined)	5.7%
CCOC(=O)c1c(NC(=O)CN2C(=O)N(C)C3(CCCCC3)C2=O)sc(C(=O)N(C)C)c1C	19.1%
CCc1ccccc1NC(=O)CSc1nc2c(oc3ccccc32)c(=O)n1-c1ccccc1F	14.5%
COc1ccc(C(=O)C2CCCN(Cc3ccc4nonc4c3)C2)c(C)c1 (centres undefined)	-0.2%
N#CCCN(NC1=NS(=O)(=O)c2ccccc21)C(=O)c1ccccc1Br	1.1%
CCC(C)NC(=O)Cn1c(=O)n(CC2CCC(C(=O)NC)CC2)c(=O)c2sccc21 (centres undefined)	2.9%
CCn1c(/C=C/c2c[nH]c3ccccc23)nc2ccccc2c1=O	-12.8%
O=C1CC(SC(=Nc2ccccc2)Nc2ccccc2)C(=O)N1c1cccc2ccccc12 (centres undefined)	-1.5%
CCc1ccc(NC(=O)CC(c2ccc(C)cc2)N2Cc3ccccc3C2=O)cc1 (centres undefined)	5.0%
CCN(c1ccc(C)cc1C)S(=O)(=O)c1nnc(NC(=O)CC(C)C)s1	0.1%

Among those listed so far, these have bromine.
SMILES	VDR inh
Cc1cc(Cl)c(OCCOCCN2CCC(C)CC2)c(Br)c1	-16.7%
N#CCCN(NC1=NS(=O)(=O)c2ccccc21)C(=O)c1ccccc1Br	1.1%

Next section:
SMILES	VDR inh
CCc1noc(-c2ccc(NCc3ccccc3)c([N+](=O)[O-])c2)n1	0.4%
O=c1cc(-c2ccc(O)cc2)oc2c([C@H]3O[C@@H](CO)[C@@H](O)[C@@H](O)[C@@H]3O)c(O)cc(O)c12	4.3%
COc1ccc(CNC(=O)CN2C(=O)COc3ccc(S(=O)(=O)N4CCCC4)cc32)cc1	-13.7%
O=C(O)C1CSC(CCc2ccccc2)N1 (centres undefined)	12.4%
CC(=O)Nc1ccc(NC(=O)Nc2sc3nc4n(c(=O)c3c2C)CCC(C)CC4)cc1 (centres undefined)	7.3%
Cc1cc(N(C)C)nc(Cl)n1	-0.2%
COc1ccc(CN2CCC(N(CCc3ccccc3)Cc3ccccc3)CC2)c(OC)c1	-21.9%
C/C(=N\NC(=O)c1cc(-c2cccc([N+](=O)[O-])c2)n[nH]1)c1ccc(F)cc1	-9.6%
CC(C)CSc1ncc(-c2cccc(C(F)(F)F)c2)cn1	4.3%
COc1ccc(C(=O)N2CCN(c3cccc(Cl)c3)CC2)c(OC)c1	19.6%
CCOc1ccc(NS(=O)(=O)c2ccc3c4c(cccc24)C(=O)N3)cc1	-3.3%
O=C(N/N=C/c1c[nH]c2ccc(Br)cc12)c1ccn(Cc2ccc(Cl)cc2Cl)n1	-6.9%
COc1ccc(Cc2nc(C(=O)NCc3ccccc3OC)cs2)cc1	19.6%
COC(=O)c1ccc(-n2nnnc2SCC(=O)Nc2ccccc2OC)cc1	9.9%
CCc1ccccc1NC(=O)N1CCc2ccccc21	-14.0%
Cc1nn(-c2ccc(F)cc2)c2nc(N)c(C#N)c(-c3cccs3)c12	-6.7%
Cc1cccn2c(Nc3ccc4c(c3)OCCO4)c(-c3ccc(Br)o3)nc12	u
O=S(=O)(c1ccccc1)N1CCNc2ccccc21	-1.9%
COCCn1nnnc1C(c1ccc(OC)c(OC)c1)N1CCN(c2nc3ccccc3s2)CC1 (centres undefined)	17.2%
O=C(N/N=C/c1cccc(Oc2ccccc2)c1)c1cccc(Br)c1	4.7%
O=C(NCc1ccccn1)C(=O)NCc1ccccn1	-5.7%
Cc1cc(C)c(C(=O)CSc2n[nH]c(=O)n2C2CC2)cc1C	-13.1%
O=C(NCCc1ccc(C(F)(F)F)cc1)C1CCC(=O)N(C2CC2)C1 (centres undefined)	-2.3%
Cc1cc(Nc2ccccc2)nn1C(=O)c1ccc(Br)cc1	14.2%
Clc1ccc(-c2nnc(-c3ccco3)nc2N2CCCCC2)cc1	-5.4%

Brought forward from above: 2 compounds, then new ones.
SMILES	VDR inh
Cc1cc(Nc2ccccc2)nn1C(=O)c1ccc(Br)cc1	14.2%
Clc1ccc(-c2nnc(-c3ccco3)nc2N2CCCCC2)cc1	-5.4%
OC(c1ccc(F)cc1)(C1CCCCC1)C(CN1CCOCC1)c1ccccc1 (centres undefined)	-1.0%
O=C1c2ccccc2C(O)(Cc2ccccc2)N1c1ccc2c(c1)OCO2 (centres undefined)	-14.7%
CCc1nc2ccc(C(=O)Nc3cccc(C(C)=O)c3)cc2nc1CC	-15.5%
CCOC(=O)c1c(-c2ccc(Cl)cc2)cn2ccccc12	-7.1%
Cc1c([N+](=O)[O-])c(C(=O)N2CCCC2)nn1C	-5.0%
COc1cc(OC)cc(C(=O)N2CCC(C(=O)NCCc3ccccc3)CC2)c1	-14.8%
COc1cccc(S(=O)(=O)Nc2noc3ccccc23)c1	-26.7%
CC(C)C(=O)Nc1c(-c2cccs2)c(=O)c2ccccc2n1C	5.1%
CCN1CCCC1CN=Cc1c(O)n(-c2ccccc2)c(=O)c2ccccc12 (centres undefined)	3.5%
NC(=O)c1c(NC(=O)COC(=O)c2ccc(S(=O)(=O)Nc3ccccc3)cc2)sc2c1CCCC2	-25.0%
CC(=O)NS(=O)(=O)c1ccc(NC(=O)c2ccccn2)cc1	-3.6%
Cc1ccccc1NS(=O)(=O)c1ccc(-c2ccc(=O)[nH]n2)o1	-13.4%
COc1ccc(OC)c(NC(=O)CCN2CCN(C/C=C/c3ccccc3)CC2)c1	-14.1%
O=CN1CCN(C(=O)Cc2ccc([N+](=O)[O-])cc2)CC1	12.7%
CCOCCn1c(=O)c2c(nc3n2CCN3c2ccc(C)c(C)c2)n(C)c1=O	4.0%
CCOC(=O)C1CCN(C(=O)/C=C/c2ccccc2OC)CC1	-2.3%
Cc1noc(C)c1CS(=O)(=O)c1ccc([N+](=O)[O-])cc1	7.4%
Cc1cc(C)n(-c2nc3ccccc3n3nnnc23)n1	-1.5%
COc1cc(/C=C/C(=O)O)cc2c1OCCO2	-13.1%
O=C(NCc1cccc(C(F)(F)F)c1)C1CC(c2ccc(C(F)(F)F)cc2)=NO1 (centres undefined)	13.4%
CCN(CC)c1ccc(S(=O)(=O)N2CCOCC2)cc1NC(=O)CSC(=S)N1CCCC1	-29.5%
